From PubChem
RecA splice inh = blocks M. tuberculosis RecA intein splicing | 0.75% of 290,000 active | P9WHJ3 | inhibition, %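 (about 9 µM by stock and volumes)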 | cell-free RecA intein splicing, fluorescence; in the data active = inhibition above about 30%; inconclusive = no clear call, values can overlap the other calls;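 also: 0% = vehicle wells and 100% = reference inhibitor control wells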
Target sequence (P9WHJ3 whole entry, looked up, canonical isoform): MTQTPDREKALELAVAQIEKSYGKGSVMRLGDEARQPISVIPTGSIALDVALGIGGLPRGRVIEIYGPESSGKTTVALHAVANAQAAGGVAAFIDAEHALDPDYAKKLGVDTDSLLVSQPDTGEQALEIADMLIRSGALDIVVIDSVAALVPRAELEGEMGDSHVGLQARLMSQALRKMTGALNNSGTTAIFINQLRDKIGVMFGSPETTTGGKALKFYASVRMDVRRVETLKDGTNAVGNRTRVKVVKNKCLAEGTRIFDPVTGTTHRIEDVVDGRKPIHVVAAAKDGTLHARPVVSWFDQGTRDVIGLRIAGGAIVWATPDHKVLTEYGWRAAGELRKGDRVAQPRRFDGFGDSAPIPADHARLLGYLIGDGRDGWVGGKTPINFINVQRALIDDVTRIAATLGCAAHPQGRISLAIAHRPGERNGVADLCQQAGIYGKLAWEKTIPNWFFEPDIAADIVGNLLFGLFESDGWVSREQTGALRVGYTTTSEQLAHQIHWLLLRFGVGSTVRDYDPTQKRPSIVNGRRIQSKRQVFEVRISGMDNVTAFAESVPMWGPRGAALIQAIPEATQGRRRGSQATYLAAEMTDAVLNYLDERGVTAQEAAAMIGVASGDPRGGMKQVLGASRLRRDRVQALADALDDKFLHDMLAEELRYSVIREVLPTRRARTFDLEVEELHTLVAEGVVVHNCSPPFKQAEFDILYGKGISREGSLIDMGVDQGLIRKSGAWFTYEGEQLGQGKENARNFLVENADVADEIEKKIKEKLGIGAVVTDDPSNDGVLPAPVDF
Arbovirus inh = antivirals against arbovirus infection. AID 1251. inhibition, % at 10 µM. arbovirus infection cell-based antiviral screen. 0.37% of 200,000 active;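 active = inhibition from about 30%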;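 also: bluetongue infection of BSR cells; cell survival read as ATP light after 72 h; 0% = infected wells without compound and 100% = uninfected wells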
YopH PTP inh = YopH (Yersinia) phosphatase inhibition; fluorescence Ex485/Em525; inhibition, %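 (about 10 µM by stock and volumes)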; 0.16% of 140,000 active; AID 898;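 active = inhibition of 50% or more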;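 also: controls were vehicle for no effect and minimum signal wells for full effect; inactives centre near -20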
Mtb betalactam = beta-lactam sensitization of Mtb H37Rv. M. tuberculosis H37Rv growth with meropenem, percent inhibition; hits of this screen are not shown here. inhibition, % at 25 µM. AID 434955. 0.27% of 330,000 active;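 active = about 74% or more and at least 40 points above the plate without the antibiotic, then above 30% in a dose series; inconclusive = first-round hits that could not be retested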;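 also: growth measured after seven days incubation then overnight dye step; 0% = bacteria only wells and 100% = bacteria with antibiotic; twin plates without the antibiotic show which effects depend on it; some results filed as inactive read as strong as hits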
Mtb growth = M. tuberculosis H37Rv growth inhibitors, H37Rv strain (AID 1626). M. tuberculosis H37Rv growth inhibition; higher % means a stronger effect. one-dose inhibition, % at 10 µM; IC50 in µM for titrated hits. 0.95% of 220,000 active;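 active = confirmed in a dose series; inconclusive = inhibition above 80% but not taken into the dose series; inactive = below 80% or under 30% at every dose of the series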;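 also: bacteria incubated seven days before Alamar blue readout; 0% = bacteria only wells and 100% = bacteria with antibiotic wells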
Arbovirus inh repeat = recorded beside Arbovirus inh, whose call it bears; inhibition, %; measured here: 10K subset replicate screen; many hits read low in the repeat;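 first of two repeat runs on a subset; 0% = infected and 100% = uninfected wells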
Numbers without * were called inactive; ? = inconclusive; · = no result given. The list is partial; the hit share may differ from the screen's.

SMILES | RecA splice inh | Arbovirus inh | YopH PTP inh | Mtb betalactam | Mtb growth | others
COc1ccc(NS(=O)(=O)c2c(F)cc(F)c(Cl)c2F)cc1S(=O)(=O)N1CCCCC1 | 9.1 | 13 | -36 | -3 | -4%
COc1ccc(-c2nsc3c(SCC(=O)Nc4cc(C)ccc4C)ncnc23)cc1 | · | -2 | -37 | · | -5%
O=C(c1cc(COc2ccc(F)cc2Cl)on1)N1CCN(C2CCCC2)CC1 | 6.4 | · | · | -6 | ·
CCN1CCc2c(sc(NC(=S)NC(=O)c3ccc(Cl)cc3)c2C(N)=O)C1 | -3.4 | · | · | 14 | 2%
Cc1ccc(OCCC(=O)NNC(=O)c2cc(C)oc2C)cc1 | 2.0 | · | · | -12 | ·
O=C(CSc1nc2ccccc2o1)Nc1ccccc1N1CCCCCC1 | 15 | -5 | -6 | -3 | 3%
CN(C)S(=O)(=O)N1CCc2ccc(NC(=O)c3ccccc3Cl)cc2C1 | 1.0 | · | · | 3 | ·
O=C(/C=C/c1ccco1)c1ccc(NC(=O)C23CC4CC(CC(C4)C2)C3)cc1 | 34* | 10 | -19 | 100 | <0.2µM*
C=CCn1c(C)cc(-c2csc(NC(=O)C3=COCCO3)n2)c1C | 0.6 | · | · | 3 | ·
C[C@@H]1CC[C@@]2(NC1)O[C@H]1C[C@H]3[C@@H]4CC=C5C[C@@H](O)CC[C@]5(C)[C@H]4CC[C@]3(C)[C@H]1[C@@H]2C | -0.5 | · | · | 3 | ·
CCN(CC(=O)Nc1ccc2c(c1)OCCO2)C(=O)/C=C/c1ccc(OC)cc1OC | 6.5 | · | · | 3 | ·
COc1ccc(NC(=O)C(C)Oc2ccc(/C(C)=N\O)cc2)cc1 (stereo not drawn) | -0.2 | -4 | -24 | -1 | ·
Cc1ccc2c(c1)c1ncn(Cc3ccc(F)cc3)c(=O)c1n2C | 7.2 | · | · | -4 | -2%
N#CC(C(=S)Nc1ccccc1)c1nc2ccccc2[nH]1 (stereo not drawn) | 2.3 | · | · | 10 | -3%
CCOC(=O)c1c(C)[nH]c(C(=O)Nc2ccc3c(c2)OCO3)c1C | 3.7 | -18 | -35 | 7 | ·
Cc1ccc(C(=O)NC2CCCCC2)cc1 | 0.0 | 11 | -38 | 7 | 13%
COc1ccc(CC(=O)NC(C)c2nnc(SCC(=O)c3ccc(OC)cc3)n2C)cc1 (stereo not drawn) | 0.6 | 5 | · | -11 | -5%
Cc1ccc2c(CC(=O)NCC3COc4ccccc4O3)coc2c1 (stereo not drawn) | 1.0 | 22 | -34 | 2 | 4%
CCOC(=O)C1CCCN(C(=O)c2cc(S(=O)(=O)N3CCCCC3)c[nH]2)C1 (stereo not drawn) | 0.6 | · | · | -9 | ·
COc1ccc(CCNCC(O)COc2ccc(Cl)cc2)cc1OC (stereo not drawn) | 0.7 | · | · | 4 | ·
N#Cc1cn(Cc2ccccc2)c2ccccc12 | 8.2 | -34 | 0 | 24 | 12%
COCC(=O)Nc1nc2n(n1)C(c1ccccc1Cl)CC(c1ccc(OC)cc1)N2 (stereo not drawn) | -28 | 3 | -38 | -9 | 7%
COC(=O)c1c(-c2ccccc2)csc1NC1=NS(=O)(=O)c2ccccc21 | -0.9 | 1 | -27 | 2 | 8%
CCOC(=O)c1c(NC(=O)C(=O)N/N=C/c2ccccc2OC)sc2c1CCCCC2 | -4.2 | -25 | -4 | 97 | -3%
CCOc1ccc(CCNC(=O)COc2cc(=O)n(C)c3ccccc23)cc1OCC | -1.6 | -13 | · | -2 | 4%
O=C(COC(=O)c1ccc(O)cc1)Nc1ccc(Cl)cc1C(=O)c1ccccc1 | 12 | 5 | -19 | 2 | 4%
COc1ccccc1OCCCCN1CCN(c2ccccc2OC)CC1 | -0.1 | -3 | -10 | 2 | -1%
C=CCN(CC=C)C(=S)NC(=O)c1ccc(OC)cc1 | -2.5 | 20 | · | 77 | ?
CNC(=S)NC1CC2CCCC(C1)N2CC(C)C (stereo not drawn) | 2.8 | 2 | -46 | 11 | -5%
CN1CCN(C(=O)/C(=C/c2ccco2)NC(=O)c2ccccc2)CC1 | -1.3 | · | · | -8 | ·
Cc1cc(C(=O)Nc2c(C)nn(Cc3c(Cl)cccc3Cl)c2C)no1 | -0.1 | -3 | -49 | -2 | -5%
O=C(CCCCn1c(=O)c2ccccc2n(Cc2ccccc2)c1=O)NC1CCN(Cc2ccccc2)CC1 | -1.8 | -20 | · | 57 | 7%
COc1cc(C(=O)Nc2ccc3c(c2)OCCO3)ccc1-n1cnnn1 | -0.1 | 1 | -26 | -19 | 2%
O=C(C1CCN(S(=O)(=O)c2cccc3cccnc23)CC1)N1CCN(c2ccccn2)CC1 | 0.9 | 2 | 13 | 1 | ·
Cn1cnnc1SCC(=O)NC1CCCc2ccccc21 (stereo not drawn) | 0.9 | -1 | · | 1 | -9%
O=C(NCC1CCN(Cc2ccccc2F)CC1)Nc1cccc(Br)c1 | 2.8 | · | · | -7 | ·

Reprinted at random: 2 compounds from above.
SMILES | RecA splice inh | Arbovirus inh | YopH PTP inh | Mtb betalactam | Mtb growth | others
O=C(C1CCN(S(=O)(=O)c2cccc3cccnc23)CC1)N1CCN(c2ccccn2)CC1 | 0.9 | 2 | 13 | 1 | ·
Cc1cc(C(=O)Nc2c(C)nn(Cc3c(Cl)cccc3Cl)c2C)no1 | -0.1 | -3 | -49 | -2 | -5%

(listing goes on)
SMILES | RecA splice inh | Arbovirus inh | YopH PTP inh | Mtb betalactam | Mtb growth | others
CNC(=O)Cc1csc2ccc(Cl)cc12 | 0.8 | -5 | -43 | 37 | 2%
N#C[C@H]1C2OC2c2ccccc2N1C(=O)c1ccccc1 (stereo partly drawn) | -1.0 | · | · | -6 | -16%
N#Cc1ccc(/C=N/N=C(N)N)cc1 | 0.4 | -10 | 7 | 4 | -5%
O=C(/C=C/c1ccccc1)n1cnnc1SC/C=C/c1ccccc1 | -0.8 | 6 | -25 | -6 | -2%
Oc1cccc(/C=N/N2CCCCC2)c1O | -18 | · | · | 7 | ·
CCOc1ccccc1NC(=O)c1cc(S(=O)(=O)N2CCOCC2)ccc1C | -1.2 | · | · | 4 | ·
O=C(Nc1nnc(C2CC2)s1)C1Cc2ccccc2CN1S(=O)(=O)c1ccccc1F (stereo not drawn) | -1.1 | -18 | -28 | 89 | ?
COc1ccc(OC)c(S(=O)(=O)CC(O)COc2ccccc2Cl)c1 (stereo not drawn) | -2.7 | · | · | 10 | ·
CCOC(=O)COc1cccc2c(=O)n(CC(=O)NCc3ccc4c(c3)OCO4)ccc12 | -2.0 | -7 | -37 | 2 | -5% | Arbovirus inh repeat=-10
CCOc1ccc(NC(=O)CSc2ccc3nnc(-c4ccccn4)n3n2)cc1 | -2.0 | · | · | 6 | ·
Cc1ccc(-n2nnnc2SCC(=O)NNC(=O)c2ccco2)cc1C | -3.3 | 1 | -30 | 3 | -6%
Cc1ccc(Nc2ccc3nonc3c2[N+](=O)[O-])cc1 | 7.4 | 11 | · | 6 | 0%

Of the compounds above, these contain a cyano group:
SMILES | RecA splice inh | Arbovirus inh | YopH PTP inh | Mtb betalactam | Mtb growth | others
N#CC(C(=S)Nc1ccccc1)c1nc2ccccc2[nH]1 (stereo not drawn) | 2.3 | · | · | 10 | -3%
N#Cc1cn(Cc2ccccc2)c2ccccc12 | 8.2 | -34 | 0 | 24 | 12%
N#C[C@H]1C2OC2c2ccccc2N1C(=O)c1ccccc1 (stereo partly drawn) | -1.0 | · | · | -6 | -16%
N#Cc1ccc(/C=N/N=C(N)N)cc1 | 0.4 | -10 | 7 | 4 | -5%

(continued)
SMILES | RecA splice inh | Arbovirus inh | YopH PTP inh | Mtb betalactam | Mtb growth | others
O=S(=O)(NCc1nc2ccccc2[nH]1)c1ccccc1 | -1.3 | · | · | -10 | ·
CCCCc1c(O)nc(SCC(=O)NCC2CCCO2)[nH]c1=O (stereo not drawn) | 1.5 | -1 | -3 | 1 | -5%
S=C(Nc1ccc(Br)cc1)N1CCN(c2ccccn2)CC1 | -1.5 | · | · | -6 | ·
CC(=O)C1=C(O)C(=O)N(c2ccc(F)cc2)C1c1ccc(C)cc1 (stereo not drawn) | -2.7 | · | · | 2 | ·
COc1cccc(NC(=O)N2CCN(c3ccc(C(F)(F)F)cn3)CC2)c1 | 0.1 | -9 | -50 | 21 | ·
CC1CCN(C(=O)C2CCN(c3nnc(-n4cccc4)s3)CC2)CC1 | 0.2 | · | · | 100 | ·
Nc1nnc(CC(=O)N/N=C/c2cc([N+](=O)[O-])cc(Br)c2O)s1 | 9.4 | 14 | · | 4 | -3%
CC(=O)c1c(C)[nH]c(C(=O)COC(=O)CNS(=O)(=O)c2ccccc2)c1C | 0.4 | 0 | -35 | 3 | -4%
Cc1ccc(/C(O)=C2\C(=O)C(=O)N(C)C2c2ccc(F)cc2)cc1 (stereo not drawn) | 2.0 | · | · | -2 | ·
O=C(NC(=S)Nc1ccc2[nH]c(=O)[nH]c2c1)c1cncc(Br)c1 | -2.8 | -2 | · | 0 | 9%
O=C(CCC(=O)N1CC2C[C@@H](C1)Cn1c2cccc1=O)NCCc1ccccc1 | -0.8 | · | · | 0 | ·
COC(=O)c1ccc(C(=O)OC)c(NC(=O)CCS(=O)(=O)Cc2ccccc2)c1 | -6.1 | · | · | -2 | ·
CN(CCCC(=O)Nc1ccncc1)S(=O)(=O)c1ccc(Cl)cc1 | -5.4 | 5 | -23 | ? | -3%
COCCOC(=O)C1=C(C)NC(=O)NC1c1cc2c(cc1Br)OCO2 (stereo not drawn) | 0.0 | · | · | -3 | ·
CCOc1ccc(C)cc1S(=O)(=O)NC1CCCCC1 | -0.2 | 16 | -27 | -20 | -5%
O=C1N(Cc2cccnc2)C[C@@H]2C[C@@H](c3cccc(OCc4ccccc4)c3)N3CCC[C@@]123 | 4.0 | -1 | · | -4 | 2%
c1ccc(CCN(Cc2ccccc2)Cc2nc(C3CC3)no2)cc1 | 7.5 | 0 | · | -2 | -4%
COC(=O)c1cc(-c2ccc(S(=O)(=O)N3CCCC3)cc2)c(C(F)(F)F)s1 | 17 | · | · | 2 | -2%
Cc1cccc(C(=O)Nc2ccc(N3CCN(C(=O)c4ccco4)CC3)cc2)c1 | -2.6 | · | · | 1 | ·
Cc1ccc(C)c(N(CC(=O)NCc2ccco2)C(=O)CNS(=O)(=O)c2ccccc2)c1 | -2.7 | · | · | 6 | ·
O=C(NCCCN1CCOCC1)c1ccc2nc(Cc3ccccc3F)oc2c1 | -0.1 | · | · | -5 | ·
CC(=O)c1c(C)[nH]c(C(=O)OCn2nnc3ccccc3c2=O)c1C | 9.4 | -11 | -38 | 1 | 4%
c1ccc(CN2CCC(Nc3ncnc4sccc34)CC2)cc1 | -0.2 | 4 | · | -7 | 8%
C=CCn1c(SCC(=O)NCCCC)nc2scc(-c3ccco3)c2c1=O | 4.8 | -3 | -19 | 0 | 0%
COc1cc2oc(=O)cc(C)c2c(OC)c1OC | 0.5 | -4 | -31 | 3 | 57%
CSCC[C@H](NC(=O)N1CCn2c1nc1ccccc12)C(=O)N[C@H](Cc1ccccc1)C(=O)O | -0.2 | · | · | -5 | ·
CC(C)Oc1ccc(C(=O)Nc2ccc(N3CCN(C(=O)c4ccco4)CC3)cc2)cc1 | -0.4 | · | · | -2 | ·
Cc1cccc(N2CCN(C(=O)c3ccc(Cl)c(NC4=NC5CS(=O)(=O)CC5S4)c3)CC2C)c1 (stereo not drawn) | 2.1 | · | · | 5 | ·
COc1ccc(Nc2ccc(N3C(=O)CC(C)C3=O)cc2[N+](=O)[O-])cc1OC (stereo not drawn) | -3.4 | 1 | · | -12 | 11%
COc1ccc(CC(=O)O/N=C(\N)c2ccccc2)cc1OC | 0.7 | · | · | -1 | ·
O=C(NCc1ccco1)Nc1cccs1 | -5.2 | 3 | -35 | -22 | -5%
COC(=O)c1ccc(CSc2nnc3nc(C)cc(C)n23)cc1 | -0.3 | 8 | · | -11 | -4%
COc1cc(NC(=O)c2cncc(-c3ccc(C#N)cc3)c2)cc(C(=O)Nc2cccc(C(F)(F)F)c2)c1 | 0.3 | · | · | -6 | -5%
CCOCCCNC(=O)CSc1ccccc1 | 1.0 | 9 | 13 | 3 | -5%
C#CC(C)(CC)NC(=O)c1cc2nc(C3CC3)cc(C(F)(F)F)n2n1 (stereo not drawn) | -2.8 | 16 | · | 16 | 8%
COC(=O)CNC(=O)C1CC(=O)N(CCc2ccc(F)cc2)C1 (stereo not drawn) | 0.0 | · | · | -3 | ·
Cc1ccccc1/C=C/C(=O)NCC(=O)N1CCC(N(C)C2CCCCC2C)CC1 (stereo not drawn) | -0.4 | -9 | · | -5 | 0%
Cc1ccc(-c2nn(-c3ccccc3)cc2/C=C(\C#N)c2cccc(C#N)c2)o1 | -1.8 | -15 | -13 | 10 | 3%
COc1ccc(-c2[nH]ncc2CN(CC2CCC(=O)N2)C(C)C)cc1F (stereo not drawn) | 0.8 | -3 | · | -6 | -3%
